Screening results from PubChem BioAssay.
Resorufin fluor: compound fluoresces in the resorufin spectral region; hit rate 0.04% among 59,000; max dye-equivalent concentration, M; Compound fluorescence, resorufin region 547/598 nm, buffer; active compounds read high; active = above 10 nM dye equivalent; inconclusive = 1 to 10 nM; inactive = 1 nM or less; a few of its hits are not listed in these tables; note: highest value over a series up to 38 µM
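Dye-equivalent concentration values derive from comparing each well's 547/598 nm fluorescence against resorufin standards included on every plate. Incubation was 15 min at room temperature in 100 mM Tris, pH 8.0.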
TSHR agonist: activates the human thyroid stimulating hormone receptor; P16473; HEK293-CNG-TSHR cells (CNG channel as cAMP sensor), membrane potential dye, cAMP; Potency, µM (highest dose often 57.1 µM), for inactives: top-dose activation, most hits filed as activators; hit rate 0.48% among 73,000; AID 926; active = well fitted activation curve of enough size with the parental cells flat; inconclusive = any curve in the parental cells; inactive = parental cells flat and receptor cells flat or falling; note: potency is the fitted concentration of half-maximal effect; % of control where 0% means no effect; weak receptor curves with flat parental cells got no call and are not listed
Target sequence (P16473 whole entry, looked up): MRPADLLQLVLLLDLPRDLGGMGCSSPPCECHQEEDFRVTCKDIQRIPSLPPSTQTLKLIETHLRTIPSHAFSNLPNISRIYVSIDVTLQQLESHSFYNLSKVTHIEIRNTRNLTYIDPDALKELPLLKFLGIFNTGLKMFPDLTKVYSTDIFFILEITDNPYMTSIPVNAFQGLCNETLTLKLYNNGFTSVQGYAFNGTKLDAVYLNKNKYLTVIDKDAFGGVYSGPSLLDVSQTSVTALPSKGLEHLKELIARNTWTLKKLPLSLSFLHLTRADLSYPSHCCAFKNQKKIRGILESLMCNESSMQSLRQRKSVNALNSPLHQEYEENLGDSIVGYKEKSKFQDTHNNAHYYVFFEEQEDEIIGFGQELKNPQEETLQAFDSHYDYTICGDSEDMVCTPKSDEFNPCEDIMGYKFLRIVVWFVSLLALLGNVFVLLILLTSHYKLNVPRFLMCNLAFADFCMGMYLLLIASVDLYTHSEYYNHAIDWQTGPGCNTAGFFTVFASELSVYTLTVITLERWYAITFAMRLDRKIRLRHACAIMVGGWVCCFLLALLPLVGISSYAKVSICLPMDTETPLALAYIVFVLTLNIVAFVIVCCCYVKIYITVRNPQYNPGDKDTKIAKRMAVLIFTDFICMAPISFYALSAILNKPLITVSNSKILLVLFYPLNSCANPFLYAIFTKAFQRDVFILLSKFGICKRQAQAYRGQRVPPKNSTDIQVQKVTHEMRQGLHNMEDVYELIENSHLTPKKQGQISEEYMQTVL
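HEK 293 cells stably expressing TSHR and a modified CNG channel, with CNG-only parental cells as counterscreen, were preloaded 60 min at room temperature with membrane potential dye containing 100 uM RO 20-1724. Compound exposure was 30 min, and depolarization was read as fluorescence at 590 nm.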
A647 fluor: A647 region autofluorescence | max dye-equivalent concentration, M | 59,000 tested, under 10 active | Compound fluorescence, A647 channel (570/671 nm), Tris buffer; active means above 1 µM dye equivalent; inconclusive means 0.1 to 1 µM; inactive means 0.1 µM or less;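 note: values scaled relative to a standard on each plate; highest value over a series up to 38 µM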
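Tris 100 mM pH 8.0; cpd + A647 stds pin-transferred; 15 min RT; CCD imager, ex 570/em 671. Output = A647-equivalent conc. per cpd conc.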
AID923: qHTS Assay for Allosteric/Competitive Inhibitors of Caspase-1: Spectroscopic Profiling in AFC Spectral Region. Potency, µM (series often up to 57.5 µM), for inactives: top-dose fluorescence increase, actives largely listed as activators. hit rate 1.1% among 75,000. compound fluorescence, AFC spectral region (405/520 nm); almost no hit is shown here; active = well fitted activation curve with a large enough effect; inconclusive = small, poorly fitted or top-dose-only effect;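 note: potency is the fitted concentration of half-maximal effect; 0% is about no effect; scaled to a free AFC standard on each plate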
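Baseline compound fluorescence (AFC region, 405 nm ex/520 nm em) taken from the intercept of kinetic reads with 50 nM caspase-1 and 5 uM Ac-WEHD-AFC; normalized to an on-plate AFC standard curve; compounds titrated up to 57 uM.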
A488 autofl: compound autofluorescence in A488 spectral region; max dye equivalency, M; hit rate 0.1% among 59,000; compound autofluorescence, A488 spectral region, dye equivalency; active compounds read high; AID 591; active = above 10 nM dye equivalent; inconclusive = 1 to 10 nM; inactive = 1 nM or less; about half of its hits are not listed in these tables;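 note: highest value over a series up to 38 µM; compound alone in buffer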
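Spectroscopic profiling in the A488 region: compounds in pH 8.0 Tris (100 mM), 15 min RT, CCD imaging with 480 nm excitation and 540 nm emission; responses normalized against A488 dye standards.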
The depositor's hits bear a star; i = inactive; ? = inconclusive; . = no result given; & = joins results of further samples; ! = repeats disagree; [ ] = dose if it differs, or a comment. Not all compounds are listed, so the mix of outcomes need not match the whole.

SMILES	Resorufin fluor	TSHR agonist	A647 fluor	AID923	A488 autofl
c1ccc(CCCCN2CCC(c3ccccc3)CC2)cc1	.	?	.	-0.6%	.
CCOC(=O)N(CC)c1ccc(C(O)(C(=O)OCC)C(F)(F)F)cc1 (stereo not given)	.	?	.	-1.5%	.
c1nc[nH]n1	.	?	.	-1.0%	.
Cc1onc(-c2ccccc2Cl)c1C(=O)NCc1ccccn1	i	?	1.8e-09	0.4%	i
CCCCn1c(=O)c(C(=O)Nc2nc3ccccc3[nH]2)c(O)c2ccccc21	i	2%	9.1e-09	0.7%	i
Cc1nc(-c2ccc(-c3ccc(C(=O)N4CCc5cc6c(cc54)C4(CCN(C)CC4)CO6)cc3)c(C)c2)no1	i	?	1e-09	-5.8%&-0.7%	i
O=C(C1CC(=O)N(c2ccc(F)c(Cl)c2)C1)N1CCC2(CC1)OCCO2 (stereo not given)	i	-4%	6.8e-09	-1.2%	i
CN(C)CCCc1cccnc1	i	0%[11.4 µM]	4.2e-08	-0.8%[11.5 µM]	i
c1cnc(N2CCC3(CCNCC3)CC2)nc1	i	?	2.3e-08	1.6%	i
CCC(=NCC1CCCO1)c1c(O)n(Cc2ccccc2)c(=O)[nH]c1=O (stereo not given)	i	1%	1.4e-09	-0.6%	i
CCN1CCN(C(=O)COc2cc(=O)n(CC)c3ccccc23)CC1	i	1%[11.4 µM]	1e-09	1.7%	i
O=P(c1ccccc1)(c1ccccc1)N1CC2(CC2)CC(O)(c2ccccc2)C1 (stereo not given)	.	?	.	-4.7%	.
C=C(CC1(CNP(=O)(c2ccccc2)c2ccccc2)CC1)c1ccccc1	.	?	.	4.5%	.
O=C(Cc1ccccc1)N1CCN(Cc2ccccn2)CC1	i	-16%	2.9e-09	-1.2%	i
CC1=CC(=C2C(=O)NC(=O)NC2=O)C=C(C(F)(F)F)N1C(C)C	.	7%	.	-2.8%	.
C[C@@H]1O[C@@H](O[C@H]2C[C@@H](O)[C@]3(CO)[C@@H]4[C@@H](O)C[C@]5(C)[C@H]([C@@H]6COC(=O)C6)CC[C@@]5(O)[C@H]4CC[C@@]3(O)C2)[C@H](O)[C@H](O)[C@@H]1O	i	?	1e-09	-0.1%	i
COC(=O)N(c1ccccc1)P1(=S)OCCO1	i	-1%	2.5e-08	1.3%	i
CC[C@H](CO)NC(=O)[C@@H]1C=C2c3cccc4[nH]cc(c34)C[C@@H]2N(C)C1	i	?	1.8e-08	4.5%	i
CCCCCCn1c(O)c(C=Nc2c(C)n(C)n(-c3ccccc3)c2=O)c(=O)[nH]c1=O	i	.	1e-09	.	i
CC(C)CC12CN3CCN(CC(C3)/C1=N/O)C2	.	-3%[11.4 µM]	.	-1.0%	.
c1ccc(NNc2ccccc2)cc1	.	-4%	.	0.3%	.
O=C1OC(=O)c2c(Br)c(Br)c(Br)c(Br)c21	.	?	.	-1.3%	.
C=CCn1c(O)c(C(CC)=Nc2cc(OC)ccc2OC)c(=O)[nH]c1=O	i	-1%[11.4 µM]	1.5e-09	0.0%	i
C[C@@]1(CO)[C@H](O)CC[C@@]2(C)[C@H]1CC[C@H]1C[C@@H]3C[C@@]12CC[C@]3(O)CO	i	.	4.8e-08	.	i
CC(c1ccccc1F)n1cc(C(=O)Nc2ccc3nc[nH]c3c2)nn1 (stereo not given)	i	-1%	1.6e-08	-1.3%	i
CN[C@H]1[C@H]2[C@H]3CCN2C[C@@H]1O3	i	5%	8.9e-09	.	i
c1ccc2sc(C3(N4CCCCC4)CCCCC3)cc2c1	i	?	2.4e-08	-2.3%&-0.1%	i
OCC(CBr)(CBr)CBr	.	?	.	1.2%	.
O=[N+]([O-])O[C@H]1CO[C@H]2[C@H]1OC[C@@H]2O[N+](=O)[O-]	i	1%[25.6 µM]	8.4e-09	0.2%[25.7 µM]	i
CN(C)Cc1c[nH]c2ccccc12	i	16µM*!	1e-09&3.9e-08	-1.2%	i

Single records (already shown).
CC1=CC(=C2C(=O)NC(=O)NC2=O)C=C(C(F)(F)F)N1C(C)C across the screens: Resorufin fluor: .; TSHR agonist: 7%; A647 fluor: .; AID923: -2.8%; A488 autofl: .
CCOC(=O)N(CC)c1ccc(C(O)(C(=O)OCC)C(F)(F)F)cc1 (stereo not given) across the screens: Resorufin fluor: .; TSHR agonist: ?; A647 fluor: .; AID923: -1.5%; A488 autofl: .
c1nc[nH]n1 across the screens: Resorufin fluor: .; TSHR agonist: ?; A647 fluor: .; AID923: -1.0%; A488 autofl: .

Continued:
SMILES	Resorufin fluor	TSHR agonist	A647 fluor	AID923	A488 autofl
O=C(c1cccs1)N1C2CCC1CC(O)(c1cccnc1)C2 (stereo not given)	i	5%	3.7e-09	0.1%	i
c1coc(CNc2ncnc3nc[nH]c23)c1	i	?	1e-09&2.4e-08	-4.1%	i
COc1ccc(C(CC(=O)N2CCC3(CC2)OCCO3)NS(=O)(=O)c2ccc(F)cc2)cc1 (stereo not given)	i	-2%[11.4 µM]	5.6e-09	0.3%	i
CCN(CC)CCNC(=O)c1nn(-c2ccc(C)cc2)c(=O)c2c1c1ccccc1n2C	i	-71%[inhibitor]	4e-08	1.0%	i
O=C1CN(C(=O)CN2CCCCC2)C(c2ccccc2)c2cc(Br)ccc2N1 (stereo not given)	i	9%	2.6e-09	-0.3%	i
C[N+](C)(C)Cc1ccccc1	.	-4%	.	0.2%	.
Cc1ccc(N)cc1C	.	6%	.	0.6%	.
CCCn1c(C)c(C(=O)c2cccc3ccccc23)c2ccccc21	.	?	.	0.7%	.
Oc1cc2c(cc1O)[C@H]1c3ccccc3CN[C@@H]1CC2	i	-3%	6.1e-08	-5.7%	i
CCCCCCn1c(O)c(C(C)=NC)c(=O)[nH]c1=O	i	.	3e-09	.	i
CCOC(=O)C1(c2ccccc2)CCN(Cc2cccc(C(=O)O)c2)CC1	i	1%	2.3e-08	0.7%	i
c1ccc(C(OCCN2CCNCC2)c2ccccc2)cc1	i	4%	3.6e-08	-0.7%	i
C[C@H](N[C@@H](C)CCc1ccccc1)[C@H](O)c1ccc(O)cc1	i	?	5.7e-09	-1.3%	i
Nc1ccc(C2(c3ccc(N)cc3)CN3CCC2CC3)cc1	i	.	4.3e-09	.	i
C[C@@H](Cc1ccc(O)cc1)NC[C@@H](O)c1cc(O)cc(O)c1	i	?	1e-09&8.2e-09	.	i
C[C@@H]1NCCc2cc(O)c(O)cc21	i	-31%[inhibitor][25.6 µM]	4e-08	-2.3%[25.7 µM]	i
CC(C)CC(=O)C[C@H](O)C(Cl)(Cl)Cl	i	-3%[11.4 µM]	1.1e-08	-2.4%[11.5 µM]	i
CC(C)(C)NC[C@H](O)c1ccccc1Cl	i	15%	2.8e-08	-1.8%	i
COc1cc2cc(c1Cl)N(C)C(=O)C[C@H](OC(=O)C(C)C)[C@]1(C)O[C@@H]1[C@@H](C)[C@H]1C[C@](O)(NC(=O)O1)[C@@H](OC)/C=C\C=C(\C)C2	i	?	1.6e-08	0.3%[11.5 µM]	i
C=CCN1C[C@@H](C)N([C@H](c2ccc(C(=O)N(CC)CC)cc2)c2cccc(OC)c2)C[C@H]1C	i	6%	1.8e-08	0.1%	i
COC(C)(C)CCCC(C)C/C=C/C(C)=C/C(=O)OC(C)C (stereo not given)	.	?	.	1.1%	.
C[C@H](N)Cc1cnc[nH]1	i	5%&7%	4.1e-08	-0.8%&-0.5%	i
CCCN(CCC)C1Cc2cc(OC)c(OC)cc2C1	i	1%&5%	1e-08	-2.2%&-3.6%	i
CNC(=O)O/N=C/C(C)(C)S(C)=O (stereo not given)	.	?	.	-1.0%	.
CC(=O)N[C@@H]1CCSC1=O	i	0%[25.6 µM]	1e-09	2.1%[25.7 µM]	i
COC(=O)c1c(C)n(Cc2ccc3c(c2)OCO3)c2ccc(O)cc12	i	?	4.8e-09	-2.1%	i
O=P(O)(O)CCP(=O)(O)O	i	4%[11.4 µM]	4.6e-08	-0.2%[11.5 µM]	i
COC(=O)C(O)(c1ccc(N(C)S(=O)(=O)c2ccccc2)cc1)C(F)(F)F (stereo not given)	.	?	.	1.2%	.
O=C1NC(=O)[C@]2(Cc3ccccc3N3CCN(c4ccccc4)CC32)C(=O)N1c1ccccc1 (stereo not given in full)	i	12%	1e-09	2.5%	i
CC(C)(C)c1o[nH]c(=O)c1C[C@H](N)C(=O)O	i	0%&2%	5.2e-08	0.6%&-0.2%	i
Cn1c(=O)c2[nH]cnc2n(C)c1=O.[CH2-][C@H](Cc1cccc2cc(C(=O)O)c(=O)oc12)OC.[Hg].[OH-]	i	0%[11.4 µM]	1e-09	-0.8%[11.5 µM]	i
CCOC(=O)c1c(C)c(P(=S)(N2CCOCC2)N2CCOCC2)n(C)c1C	i	8%	3.3e-08	-0.6%	i
C[N+]1(C)CCO[C@@](O)(c2ccc(-c3ccc([C@]4(O)C[N+](C)(C)CCO4)cc3)cc2)C1	i	1%	1.6e-08	-0.9%	i
CCN1CCN(C(=O)Cc2coc3cc(C)cc(C)c23)CC1	i	-1%	1e-09	2.6%	i
CCOC(C(=O)OCC(O)CN(CC)CC)(c1ccccc1)c1ccccc1 (stereo not given)	i	.	7.1e-08	.	i
Cc1ccc(-n2c(O)c(C=NCc3cccnc3)c(=O)[nH]c2=O)cc1C	i	-5%	1e-09	1.0%	i
Cn1c(=O)cc(SCC(=O)N2CCC3(CC2)OCCO3)c2ccccc21	i	1%[11.4 µM]	5.9e-09	0.0%	i
CN(C)CCOC(=O)c1cn(Cc2ccccc2)c2ccccc12	i	.	3.3e-09	.	i
S=C(NC1CCCCC1)N1CCC(c2cnc[nH]2)CC1	i	8%&3%	2.4e-09	-0.7%&-1.9%	i
N#Cc1ccc(CN2CC3(CCNCC3)C2)cc1	i	1%	4.2e-09	0.7%	i

A second format for 2 compounds above.
Results follow in this order: Resorufin fluor, TSHR agonist, A647 fluor, AID923, A488 autofl
CN(C)CCOC(=O)c1cn(Cc2ccccc2)c2ccccc12
 : i, ., 3.3e-09, ., i
S=C(NC1CCCCC1)N1CCC(c2cnc[nH]2)CC1
 : i, 8%&3%, 2.4e-09, -0.7%&-1.9%, i

The listing continues:
SMILES	Resorufin fluor	TSHR agonist	A647 fluor	AID923	A488 autofl
CCN(CC)c1ncnc2c1ncn2[C@@H]1O[C@@H](COP(=O)(O)OP(=O)(O)C(Br)(Br)P(=O)(O)O)[C@H](O)[C@H]1O	.	2%	.	0.3%	.
c1ccc(N2CCC3(CCNCC3)CC2)nc1	i	?	4.1e-09	-1.3%	i
Cc1cc(Cl)ccc1OCC(=O)O	i	6%	2.1e-08	-0.6%	i
COC(=O)C1=C(N)OC(C)=C(C(C)=O)C12C(=O)N(C)c1ccccc12 (stereo not given)	i	-3%	2.8e-08	-1.4%	i
O=C(O)C(Cl)Br (stereo not given)	.	1%	.	2.7%	.
COC(=O)c1cc2c(cn1)[nH]c1ccccc12	i	1%	1e-09	0.5%	i
CCn1cc(C(=O)O)c(=O)c2ccc(C)nc21	i	1%	5.9e-09&3.1e-09&1.6e-09	-1.6%	i
Cn1cc(CCC(=O)N2CCC3(CC2)OCCO3)c2ccccc21	i	-5%	4.8e-09	-0.5%	i
O=c1[nH]oc2c1CCNC2	i	12%	7.1e-09&6.6e-09	-0.5%	i
